# High-throughput results: PubChem, National Center for Advancing Translational Sciences (NCATS)
# VDR inhibitor – Inhibitors of the vitamin D receptor (VDR): qHTS | Potency, µM, for inactives: max response, negative = inhibition, actives largely listed as inhibitors | Vitamin D3 receptor (Homo sapiens), P11473 | 0.93% of 400,000 active | VDR-SRC2-3 peptide fluorescence polarization, 2 h | AID 504847, 2011; active = well fitted inhibition curve with a large enough effect; inconclusive = small, poorly fitted or top-dose-only effect, or another doubt; inactive = no such curve, though single readings can be large or run the other way; note: series mostly up to about 120 µM
# Target sequence (P11473 whole entry, looked up): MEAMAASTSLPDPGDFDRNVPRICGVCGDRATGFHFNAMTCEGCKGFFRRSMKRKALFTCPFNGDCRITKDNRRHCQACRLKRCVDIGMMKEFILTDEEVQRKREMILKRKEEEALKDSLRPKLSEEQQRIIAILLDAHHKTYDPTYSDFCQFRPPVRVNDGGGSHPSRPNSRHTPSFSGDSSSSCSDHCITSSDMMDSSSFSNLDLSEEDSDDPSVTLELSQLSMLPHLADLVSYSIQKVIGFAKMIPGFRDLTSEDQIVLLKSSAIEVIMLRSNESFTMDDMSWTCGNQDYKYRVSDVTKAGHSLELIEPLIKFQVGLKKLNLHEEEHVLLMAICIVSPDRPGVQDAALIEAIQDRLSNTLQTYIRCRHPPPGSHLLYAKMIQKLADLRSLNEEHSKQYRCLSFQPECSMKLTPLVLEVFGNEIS
#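 Signal is fluorescence polarization, reporting how far test compounds block the interaction of VDR with the SRC2-3 coregulator peptide after a 2 h room-temperature incubation.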
# The depositor's hits bear a star; ? = inconclusive; & = joins results of further samples. % is set by controls: 0 for no effect and ±100 for the full control effect; potency is the fitted concentration of half-maximal effect. These rows are one share of the data; rates above refer to the full screens.
# Start of the data: the first three records, to show the layout:
SMILES	VDR inhibitor
O=C(/C=C/c1ccc(Cl)cc1)NCCSc1ccccc1	-6%
Cn1nnc2c(NCc3c(F)cccc3F)ncnc21	1%
COc1ccc(CCNC(=O)/C(C#N)=C/c2cccc(OCc3ccccc3)c2)cc1OC	?

# Results (from the top)
SMILES	VDR inhibitor
O=C(/C=C/c1ccc(Cl)cc1)NCCSc1ccccc1	-6%
Cn1nnc2c(NCc3c(F)cccc3F)ncnc21	1%
COc1ccc(CCNC(=O)/C(C#N)=C/c2cccc(OCc3ccccc3)c2)cc1OC	?
C[C@H](CO)N1C[C@H](C)[C@@H](CN(C)C(=O)Nc2ccc(C(F)(F)F)cc2)Oc2ccc(NC(=O)C3CCCCC3)cc2C1=O	-6%
NS(=O)(=O)c1ccc(CCNC(=O)CSc2nc3ccsc3c(=O)n2CCCCC(=O)O)cc1	-7%
CC[C@]12c3[nH]c4ccc(Cl)cc4c3CCN1C(=O)[C@@H](CC(=O)NCc1ccco1)C[C@@H]2C(=O)N1CCN(C(=O)C2CC2)CC1	-34%
Cc1ccc(NC(=O)c2sc3nc(-c4ccc(F)cc4)cn3c2C)c(C)c1	-3%
CN1CCN(NC(=O)c2ccc(Cl)c([N+](=O)[O-])c2)CC1	10%
COc1ccc(NC(=S)N(Cc2ccccn2)Cc2ccccc2Cl)cc1	10%
N#CC1=C(N)NC(SCc2ccc(Cl)cc2)=C(C#N)C12CCCCC2	-9%
O=C(COc1cccc2c1CCN(Cc1ccc(Br)cc1)C2=O)N1CCOCC1	-25%
COCCCNC(=O)c1ccc(CS(=O)(=O)Cc2cccc(C)c2)o1	0%
Cc1ccc(O)c(-n2nc3ccccc3n2)c1	9%&16%
Cc1ccc(S(=O)(=O)N2CCCC2)cc1S(=O)(=O)N1CCCC1	10%
O=[N+]([O-])O[C@H]1CO[C@H]2[C@@H]1OC[C@H]2O	1%
C[C@@H]1CN([C@@H](C)CO)C(=O)c2cccc(NS(C)(=O)=O)c2O[C@H]1CN(C)Cc1ccc(Oc2ccccc2)cc1	-5%
CC(=O)NC1CC2CCCC(C1)N2CC(=O)N1CCCc2ccccc21 (stereo not drawn)	7%
CN(C(=O)CSc1ncccn1)C1CCS(=O)(=O)C1 (stereo not drawn)	9%
CN1CCC(Oc2ccccc2Sc2ccccc2)CC1	-6%
CC(OC(=O)c1ccc(Cl)nc1)C(=O)Nc1ccc(S(=O)(=O)N2CCCC2)cc1 (stereo not drawn)	-17%

# A draw from above in order of molecular weight, lowest first.
SMILES	VDR inhibitor
CN(C(=O)CSc1ncccn1)C1CCS(=O)(=O)C1 (stereo not drawn)	9%
CC(=O)NC1CC2CCCC(C1)N2CC(=O)N1CCCc2ccccc21 (stereo not drawn)	7%
Cc1ccc(S(=O)(=O)N2CCCC2)cc1S(=O)(=O)N1CCCC1	10%
COCCCNC(=O)c1ccc(CS(=O)(=O)Cc2cccc(C)c2)o1	0%
CC(OC(=O)c1ccc(Cl)nc1)C(=O)Nc1ccc(S(=O)(=O)N2CCCC2)cc1 (stereo not drawn)	-17%
C[C@@H]1CN([C@@H](C)CO)C(=O)c2cccc(NS(C)(=O)=O)c2O[C@H]1CN(C)Cc1ccc(Oc2ccccc2)cc1	-5%

# More records
SMILES	VDR inhibitor
C=CCN1C(=O)/C(=c2\sc3nc(=O)c(Cc4ccccc4)nn3c2=O)c2ccccc21	?
COC(=O)Nc1ccc(SCC(=O)c2ccc(Cl)cc2)cc1	2%
COc1ccc(CNC(=O)c2cc(Nc3ccccc3C)nc3ccccc23)cc1	-23%
CCOc1ccc2nc(SCC(=O)N(CC(C)C)c3c(N)n(Cc4ccccc4)c(=O)[nH]c3=O)[nH]c2c1	-17%
CCOc1ccccc1NC(=O)Cn1c(=O)c2ccccc2n(CC)c1=O	-6%
COc1cc(NC(=O)CCCn2c(=S)[nH]c3ccccc3c2=O)cc(OC)c1OC	-15%
CCCN(CC(=O)Nc1ccccc1C)C(=O)C1CC(=O)N(c2ccc(CC)cc2)C1 (stereo not drawn)	-12%
COc1ccccc1NS(=O)(=O)c1cc(NC(=O)c2ccco2)ccc1N1CCOCC1	3%
CCc1nnc(NC(=O)c2nc(S(=O)(=O)Cc3ccc(C)cc3)ncc2Cl)s1	22µM*
CCOC(=O)c1snc2c(=O)[nH]cnc12	14%
Cc1ccn2c(CNC(C)CCn3cccn3)c(C(=O)N3CCCCCC3)nc2c1 (stereo not drawn)	7%
CCN(CC)S(=O)(=O)c1cccc(C(=O)NCCCN2CCOCC2)c1	-18%
CC(=O)Nc1nn(C)c2nc3ccc(C)cc3cc12	-13%
COc1ccc(OC)c(/C=N/NC(=O)c2[nH]nc3c2CCc2ccccc2-3)c1	-11%
CCOc1ccc(CC(=O)NC2CC(=O)N(c3ccc(C)c(C)c3)C2)cc1 (stereo not drawn)	3%
O=C(CCCN1C(=O)/C(=C/c2cccs2)SC1=S)NNC(=O)c1ccccc1O	-8%
CCOC(=O)N1CCN(C(=O)COC(=O)c2ccc(Cl)nc2)CC1	?
CCOC(=O)C1=C(C)N(C)C(C)=C(C(=O)OCC)C1c1ccc(Cl)cc1	12%
CC1=C(C(=O)OCc2ccccc2)C(c2ccc(Br)cc2)NC(=O)N1CCCC(=O)O (stereo not drawn)	-12%
CCn1ncc(Br)c1C(=O)Nc1ccn(C23CC4CC(CC(C4)C2)C3)n1	-8%

# 2 compounds drawn at random from those above, as already listed:
SMILES	VDR inhibitor
CCOC(=O)N1CCN(C(=O)COC(=O)c2ccc(Cl)nc2)CC1	?
Cc1ccn2c(CNC(C)CCn3cccn3)c(C(=O)N3CCCCCC3)nc2c1 (stereo not drawn)	7%

# The list continues.
SMILES	VDR inhibitor
CCC(C)c1ccccc1OCCCN(C)Cc1ccccc1 (stereo not drawn)	-14%
Cc1c(C(=O)O)cccc1[N+](=O)[O-]	4%
Cc1cc(C)c2c(c1)c(C)cc1nnc(SCc3ccccc3C#N)n12	4%
COc1ccc(OC)c(NC(=O)c2c(NCc3ccc(OC)c(OC)c3)sc3c2CCC3)c1	7%
COC(=O)c1ccc(CSc2ccc3nnc(-c4cccc(F)c4)n3n2)o1	-29%
Cc1ccc2c(c1)N(CC(=O)N1CCCC(C)C1)C(=O)CO2 (stereo not drawn)	-6%
CCC(NC(=O)Nc1cc(OC)c(OC)c(OC)c1)(C(F)(F)F)C(F)(F)F	-20%
O=C(COc1ccc(Br)cc1)Nc1ccc(C(=O)Nc2ccccc2C(=O)O)cc1	11%
CC(NC(=O)c1ccc(CS(=O)(=O)Cc2ccccc2F)o1)c1ccc2c(c1)OCCO2 (stereo not drawn)	5%
COc1cccc(CN(C)C(=O)c2ccc(NS(=O)(=O)c3ccc4[nH]c(=O)[nH]c4c3)cc2)c1OC	4%
CCn1cc(C(=O)NCCc2ccc(OC)c(OC)c2)c(=O)c2cc(S(=O)(=O)N3CCOCC3)ccc21	-2%&-9%
Cn1cnc(S(=O)(=O)N2CCCC(C(=O)Nc3cccc(C#N)c3)C2)c1 (stereo not drawn)	5%
O=C(CCC1N=C2c3ccccc3N=C(SCc3ccc(F)cc3)N2C1=O)N1CCN(c2ccccc2)CC1 (stereo not drawn)	-8%
Nc1ccc(-n2nnnc2-c2ccco2)cc1	9%
Cc1cc(C)c(S(=O)(=O)c2cccc(Br)c2C)c(Cl)n1	13%
C=CCNC(=O)c1ccccc1NS(=O)(=O)c1ccc(SC)cc1	9%
Cc1cc(NC(=O)COC(=O)CSCc2ccc(Cl)c(Cl)c2)no1	-7%
CC(c1ccc(Br)cc1)N1CC23C=CC(O2)C(C(=O)O)C3C1=O (stereo not drawn)	8%
CC(C)COCC(CN(Cc1ccccc1)c1ccccc1)N1CCCC1 (stereo not drawn)	-4%&-15%&3%&-17%
Nc1c(-c2ccc(Cl)cc2)cnc2ncnn12	2%
COc1cc(/C=C/[N+](=O)[O-])ccc1OC(=O)/C=C/c1ccc(F)cc1	?
Cc1cc(C)c2c(N)c(C(=O)N/N=C/c3ccccc3)sc2n1	9%
Cc1cc2cccc(C)c2nc1SCC(=O)NC1CCCCC1	10%
Cc1noc(C)c1C(=O)OCC(=O)Nc1ccc(S(N)(=O)=O)cc1	10%
CCCCCCCCC(=O)NC(NC(=S)N1CCOCC1)C(Cl)(Cl)Cl (stereo not drawn)	6%
O=C1C2CCCN2C(=O)N1CCN1CCN(CCO)CC1 (stereo not drawn)	-9%
CC(C)NC(=O)CCCN1C(=O)CCn2nc(-c3cccn3C)cc21	3%
CCCCOC(=O)c1ccc(NC(=O)C(=O)NCc2cccnc2)cc1	-1%
Cc1[nH]c2ccccc2c1CC(=O)O	10%
Cc1ccc2cc(C(c3nnnn3C3CCCC3)N3CCOCC3)c(=O)[nH]c2c1C (stereo not drawn)	18%
COc1ccccc1N1CCN(CCCC(=O)c2ccc(F)cc2)CC1	1%
CCOc1ccc(S(=O)(=O)NCCC(=O)NCc2ccc(OC)c(OC)c2)cc1	-1%
COc1cccc2c1OC1(C)CC2NC(=O)N1 (stereo not drawn)	-11%
CCN(CC)C(=S)SC1CCCCN(C(=O)c2ccc(F)cc2)C1=O (stereo not drawn)	-14%
CCOC(=O)Cc1csc(NC(=O)COc2ccccc2OCC)n1	8%
COc1cccc(Cn2cnc3c(NS(=O)(=O)c4cc(Cl)ccc4Cl)c(C)c(C)cc32)c1	-15%
NCCN1C(=O)S/C(=C\c2ccc3c(c2)OCO3)C1=O	-24%
O=C(CN1C(=O)c2ccccc2C1=O)Nc1cccc(O)c1	22%
O=C(Cn1cnc2nc3n(c2c1=O)CCC3)NCc1ccccc1	6%
CC1CN(c2nc3ccccn3c(=O)c2C=O)CC(C)O1 (stereo not drawn)	-24%
CCOc1ccc2oc(C(=O)N3CCN(c4ccccn4)CC3)c(C)c2c1	-6%
CCc1ccc(/C=C(/C#N)C(N)=S)s1	12%
CCOc1ccc2c(ccc(/C=C/c3cc(C)c4cccnc4c3O)[n+]2C)c1	10%
Cn1nccc1C(=O)Oc1cccc(/C=N/NC(=O)c2ccccc2O)c1	-14%
O=S(=O)(NCCOc1cccc2cccnc12)c1ccc(F)cc1	2%
COc1cccc(N(C(=O)CCl)C(C(=O)NCCc2ccccc2)c2cccs2)c1 (stereo not drawn)	-18%
COC(=O)c1ccc(N=c2sc(C(=O)OC)cc(=O)n2C)cc1	-12%
C=CCc1cccc(/C=N/NC(=O)C(=O)Nc2ccc(C)cc2)c1O	-12%
O=C(NCCN1C(=O)S/C(=C\c2ccccc2)C1=O)C1CCN(S(=O)(=O)c2cccs2)CC1	-12%
CSCC[C@H](NC(=O)Cc1c(C)c2cc3c4c(oc3cc2oc1=O)CCCC4)C(=O)O	-22%

# Remaining list, next part
SMILES	VDR inhibitor
CCn1c(=O)c(C(=O)Nn2c(C)nc3ccccc3c2=O)c(O)c2ccccc21	-13%
CN1CCN(CC#Cc2ccccc2)CC1CCO (stereo not drawn)	-11%
COc1ccc(NC(C)=O)cc1CP(=O)(c1ccccc1)c1ccccc1	?
CC(=O)c1ccc(OCC(O)COc2ccc(C(C)=O)cc2)cc1	8%
CCOC(=O)N1CCC(NC(=O)C2=CCN(S(=O)(=O)c3ccccc3)CC2)CC1	-2%
NS(=O)(=O)C#Cc1ccccc1	-12%&-14%
Cc1ccc2[nH]c(=O)c(CN(CC3CCCO3)S(=O)(=O)c3c(C)ccc4nsnc34)cc2c1 (stereo not drawn)	-7%
COC(=O)c1ccc(CN2CCCCC2)cc1	18%
COc1ccc(NC(=O)c2cc(-c3cccc(OC)c3)on2)cc1	10%
CC(CCc1ccccc1)NC(=O)C(C)OC(=O)c1ccco1 (stereo not drawn)	-2%
COc1ccc(C=C2C=C(C(C)(C)C)C(=O)C(C(C)(C)C)=C2)cc1OC	?
CN(CC(=O)NNC(=O)CNC(=O)c1cccs1)S(=O)(=O)c1ccc(Cl)cc1	14%
CCCc1c(C)nc2c(Br)cccc2c1Cl	-16%
COc1ccc(-c2cn3c(C)c(C(=O)Nc4ccncc4)sc3n2)cc1	-14%
Cc1ccc(NC(=O)NCC2CCN(Cc3cccc(Cl)c3)CC2)c(Cl)c1	-29%
COc1cccc(NC(=O)Nc2ccc(C(C)(C)C)cc2)c1	26%
N#C/C(=C/c1ccc(F)cc1)c1nc(CCN2C(=O)c3ccccc3C2=O)cs1	-10%
CN(C)c1ccc(C(C(=O)NC2CCCC2)N(Cc2cccnc2)C(=O)c2snc(C(N)=O)c2N)cc1 (stereo not drawn)	3%
O=C(NC1CCCC1)C1CC(=O)N(c2ccc(F)c(Cl)c2)C1 (stereo not drawn)	-6%
Cc1cccc(-n2cc(C(=O)O)c(=O)cc2C)c1	-13%
O=C(CCC(=O)OCC(=O)c1ccc([N+](=O)[O-])cc1)NC1CCCCC1	-11%
Cn1c(CCC(=O)OCC(=O)NCC(F)(F)F)nc(=O)c2ccccc21	-3%
CC(NS(=O)(=O)c1ccc(OCC(=O)NCc2ccccn2)cc1)c1ccccc1 (stereo not drawn)	0%
O=C(NCC1COCCO1)c1ccc2nc(Cc3cccc(Cl)c3)oc2c1 (stereo not drawn)	23%
COc1cccc(-c2ccc(NC(=O)C3CCCN(Cc4cnc(N(C)C)s4)C3)cc2)c1 (stereo not drawn)	-14%
Clc1ccc(-c2csc(N3CCN(c4ccccc4)CC3)n2)cc1	6%
CC1CC(C)(C)NC(=S)N1CCCC(=O)Nc1ccc(Cl)cc1 (stereo not drawn)	5%
COc1ccc(-n2ncc(C(C)NS(=O)(=O)c3ccc(C)s3)c2C)cc1 (stereo not drawn)	-7%
